MT1-MMP act inh: MT1-MMP (human) activation inhibition; P50281; HT1080 RFP-PRO-GFP cells, GFP/RFP ratio fluorescence, overnight; percent of plate control window, DMSO zero; GFP/RFP ratio change, % at 20 µM; actives 0.061% (n = 360,000); AID 651647;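 active = GFP/RFP ratio change of at least 30% with cell ATP level not reduced by more than half and red fluorescence within 50% of control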; also: strong numbers were not always called active
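Assay system: HT1080 cells carrying an RFP-PRO-GFP reporter | Dosing: Single dose of 20 µM compound, 1% DMSO final | Incubation: Cells overnight before dosing, compound overnight, 37 °C, 5% CO2 | Evaluation: GFP/RFP fluorescence ratio | Control set: DMSO and RFP-L50D-GFP cell wells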
HIV Env fusion: HIV envelope-mediated fusion inhibition; HeLa-JRFL Env/CEM21 cell fusion, luciferase; inhibition, % at 12.3 µM; actives 1.1% (n = 360,000);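 active = mean replicate inhibition score of at least 50 and every replicate individually at or above 50; inconclusive = only one of the two criteria met; inactive = mean below 50 and not all replicates reaching 50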;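 also: 0% = plate neutral controls and 100% = maraviroc near 300 nM; one replicate is shown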
PABP polyA inh: blocks human PABP binding to poly(A) RNA | AID 2014 | inhibition, % at 35 µM | actives 1% (n = 290,000) | P11940 | fluorescence polarization;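 active = 50% or more with normal probe brightness, or confirmed in later tests; inconclusive = above 50% with abnormal brightness, or retests that disagree; inactive = below 50% or failed in later tests; about a fifth of its hits are not listed in these tables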;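 also: calls also rest on retests at 20 µM and on dose response follow-up; controls were probe without protein and protein plus probe with vehicle; some compounds called inactive have numbers as strong as hits; many hits fall short of the cut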
UUG fidelity: yeast start codon fidelity modulation. S. cerevisiae UUG-firefly luciferase reporter, luminescence/redox ratio. activity score, % at 18.7 µM. actives 0.13% (n = 350,000). AID 602363;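 active = replicate mean at a twofold rise or more, about +100% in these data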;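 also: firefly luciferase made from a UUG start codon reports start codon fidelity; reporter light over untreated wells divided by growth signal over untreated wells; some hits fall short of that in this replicate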
eIF4H inh: inhibitors of RNA binding by human eIF4H. Q15056. eIF4H fluorescence polarization binding assay. inhibition, % at 35 µM. actives 0.94% (n = 290,000);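 active = 50% or more with normal probe brightness, or confirmed in later tests; inconclusive = above 50% with abnormal brightness, or retests that disagree; inactive = below 50% or failed in later tests; about a fifth of its hits are not listed in these tables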;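 also: calls also rest on retests at 20 µM and on dose response follow-up; 0% = protein and probe with vehicle and 100% = probe without protein; strong numbers were not always called active; many hits fall short of the cut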
Rce1 inhib: inhibitors of yeast Ras-converting enzyme | Q03530 | yeast membranes, quenched prenylated peptide cleavage fluorescence | calls only | actives 0.27% (n = 290,000) | AID 2563;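 active = fall in fluorescence gain of 50% or more versus controls, with final raw signal at or below 3038400; inconclusive = same 50% fall but final raw signal above 3038400; inactive = fall in fluorescence gain under 50%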;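 also: plate controls were neutral control wells for no effect and wells lacking membranes for full effect; tested at 10 µM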
Target sequence (Q03530 whole entry, looked up): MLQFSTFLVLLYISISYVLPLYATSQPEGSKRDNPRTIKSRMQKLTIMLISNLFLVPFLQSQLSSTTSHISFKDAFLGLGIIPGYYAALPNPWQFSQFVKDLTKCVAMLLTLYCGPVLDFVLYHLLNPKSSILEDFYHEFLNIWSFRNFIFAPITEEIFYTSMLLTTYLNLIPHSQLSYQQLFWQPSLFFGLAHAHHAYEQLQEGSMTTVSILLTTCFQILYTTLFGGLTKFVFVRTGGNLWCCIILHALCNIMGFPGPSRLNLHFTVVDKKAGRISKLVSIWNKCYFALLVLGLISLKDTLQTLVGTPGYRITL
CSC inhib: cancer stem cell inhibition. cancer stem cell-like cells viability, luminescence. inhibition, % at 7.5 µM. actives 1.1% (n = 300,000);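 active = mean at 75% or more and at least half the replicates too; inconclusive = mean and replicates disagree; tested in HMLE shEcad cells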;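 also: 0% = median of negative and 100% = median of positive control wells; the first replicate is given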
eIF4H inh retest: second read-out of eIF4H inh, no call of its own (marks repeat the call); inhibition, %; compound at 20 µM; confirmation average;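 mean of two retest wells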
PABP polyA inh retest: further read-out of PABP polyA inh, marked with its call; inhibition, %; compound at 20 µM; confirmation repeats;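 mean of two retest wells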
MT1-MMP act inh RFP: also measured in MT1-MMP act inh; calls as there; RFP signal change, %; measured here: RFP expression control read;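 0 = vehicle wells; hits needed this value within 50% of zero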
Starred values were filed as active, the others as inactive; i = inactive; ? = inconclusive; / = no result given; & = joins results of further samples; [ ] = remark or other dose.

SMILES | MT1-MMP act inh | MT1-MMP act inh RFP | HIV Env fusion | PABP polyA inh | UUG fidelity | eIF4H inh | Rce1 inhib | CSC inhib | others
CC(C)C[C@H](NC(=O)c1nc[nH]c1C(=O)N[C@@H](CCCCN)C(=O)OC(C)(C)C)C(=O)OC(C)(C)C | 2 | 4 | / | / | -12 | / | / | -9
COC(=O)C[C@H]1C[C@@H]2c3cc(N(C)C)ccc3O[C@@H]2[C@H](CO)O1 | 2 | 3 | -34 | / | -17 | / | / | /
Cc1ccc(CS(=O)Cc2ccc(C(=O)NCc3ccccc3Br)o2)cc1 (centres undefined) | 2 | -4 | 11 | -1 | -1 | -10 | i | -10
Cc1ccccc1-c1nnc(SCC(=O)NC2CCCCC2)o1 | 1 | -4 | / | -8 | / | -6 | i | -10
COc1cccc(CNS(=O)(=O)c2ccc3c(c2)CC(C)N3C(=O)C2CC2)c1 (centres undefined) | 1 | -15 | 13 | / | -1 | / | i | -3
CC(=O)N1CCN(C(=O)COC(=O)COc2c(C)cc(C)cc2C)CC1 | -1 | 0 | -22 | / | 6 | / | / | /
COc1ccc(CC(=O)Nc2c3c(nn2C(C)(C)C)CS(=O)(=O)C3)cc1OC | -3 | 3 | 5 | -5 | -4 | 0 | i | -1
CC1(C)CC(=O)C2=C(C1)OC(N)=C(C#N)C2c1cccs1 (centres undefined) | -2 | 2 | 24 | 10 | / | -6 | / | 10
CC(=O)c1ccc(Sc2nnnn2-c2ccccc2)c([N+](=O)[O-])c1 | -7 | -10 | 35 | -4 | / | 3 | i | 39
CCc1ccccc1NC(=O)CSc1nnc(Cn2cnc3ccccc32)o1 | 3 | 1 | / | 8 | -16 | 2 | i | -3
CCC(C)Sc1cc(-c2nc3ccc(Cl)cn3c2NC2CCCCC2)ccc1OC (centres undefined) | -5&-2 | -6&-4 | 18&27 | / | -8 | / | / | /
CCN(CC)c1ccc(S(=O)(=O)N2CCOCC2)cc1NC(=O)CSc1ccccc1 | -4 | -2 | -4 | / | -17 | / | i | 11
O=C(N/N=C/c1ccc(O)cc1)c1ccncc1 | -3 | -1 | -18 | -6 | -5 | 6 | i | -11
CCCCC(=O)N1CCN(c2nc3ccc(Br)cc3s2)CC1 | -3 | -22 | 0 | 10 | -9 | -3 | i | -14
O=C(CSc1nc(-c2ccccc2)cc(C(F)(F)F)n1)NCc1cccs1 | -2 | -6 | / | -3 | / | 0 | i | -8
CSc1sc(-c2ccnc(SCCS(C)(=O)=O)n2)c(-c2ccccc2)c1C#N | 6 | -7 | 31 | -3 | / | -11 | / | 8
COc1ccccc1S(=O)(=O)N(C)C[C@@H]1OCc2cnnn2CCCC(=O)N([C@H](C)CO)C[C@@H]1C | 5 | 9 | -15 | / | -8&27 | / | / | /
COc1ccc(NC(=O)COC(=O)Cc2ccc(-c3ccccc3)cc2)c(OC)c1 | 6 | 6 | -27 | 5 | / | -3 | i | -14
CCOc1ccc(NC(=O)C2CCN(C(=O)NCc3ccccc3)CC2)cc1 | 6 | 4 | 0 | 13 | -16 | 9 | i | -5
CN(C(=O)COC(=O)c1ccccc1Nc1ccccc1)c1c(N)n(Cc2ccccc2)c(=O)[nH]c1=O | -8 | -11 | / | / | -5 | / | i | 1
CC(C(=O)N1CCC(C(N)=O)CC1)N(c1ccc(Oc2ccccc2)cc1)S(C)(=O)=O (centres undefined) | -2 | -2 | -19 | -9 | 46 | -12 | i | -4
CCN(CC)S(=O)(=O)c1cccc(C(=O)Nc2ccccc2C(=O)N2CCOCC2)c1 | 5 | 5 | / | -12 | -9 | -2 | i | 0
OCCNCC1(O)C2CC3CC(C2)CC1C3 (centres undefined) | -4 | -4 | -73 | 3 | / | 0 | i | 2
Cc1cc(C(=O)NNC(=O)CCN2CCN(c3ccccc3)CC2)c2ccccc2n1 | 2 | 2 | -2 | -13 | -10 | -9 | i | -7
COc1ccc(CNC(=O)CN2C(=O)COc3ccc(S(=O)(=O)N4CCOCC4)cc32)cc1 | 0 | 2 | -5 | / | 1 | / | i | -24
CC(=O)c1ccc(S(=O)(=O)N2CCc3ccccc3C2)cc1 | 0 | -5 | -11 | -4 | -14 | 1 | i | -6
Cc1ccc2cc(CN(Cc3nnnn3Cc3ccco3)CC3CCCO3)c(=O)[nH]c2c1C (centres undefined) | -9 | 6 | / | 32 | / | 55 | i | 3 | eIF4H inh retest=3;PABP polyA inh retest=7
Cc1ccc(Cl)cc1NC(=O)c1ocnc1C | 6 | 0 | -16 | 11 | -7 | -4 | i | 5
Nc1ccc(-c2c3ccc(=O)cc-3oc3cc(O)ccc23)cc1C(=O)O | -52 | 3 | -19 | ? | / | ? | i | /
CCOc1cc(C(=O)Nc2ccc(S(=O)(=O)N3CCCCC3)cc2)ccc1OCC(=O)N1CCOCC1 | 2 | -6 | 2 | / | -1 | / | i | /
CCCSc1cc(N2CCN(C)CC2)nc(-c2ccc(OC)cc2)n1 | -5 | -4 | / | 10 | / | 1 | i | 35
O=[N+]([O-])C1=CC=C2C(=NC3(CCCCC3)N2O)C1=NC1CCCCC1 | 12 | 4 | / | 1 | / | 4 | / | 3
COc1ccc(C(=O)NNC(=O)c2ccc3ccccc3c2O)cc1 | 1 | 5 | 3 | 26 | -13 | 2 | i | -6
O=C(Cc1ccccc1)O/N=C1\CCCc2ccccc21 | -2 | 1 | 7 | 4 | / | -2 | i | -8
C[C@@H]1CN([C@@H](C)CO)C(=O)CCCn2nncc2CO[C@H]1CN(C)C(=O)Nc1ccc2c(c1)OCO2 | 3 | 5 | 1[16.7 µM] | / | -5&-10&-10 | / | / | /
CCOP(=O)(c1ccc(N(C)C)cc1)C(O)c1ccccc1F (centres undefined) | 2 | 2 | 3 | -3 | 7 | -11 | i | -6
O=C(NC1CC1)C1=C[C@H](c2ccc(C(F)(F)F)cc2)C[C@H](OCc2ccc(CO)cc2)O1 | 4 | -1 | -18 | 4 | -28 | -1 | i | -30
COc1ccc(S(=O)(=O)N2CCOCC2)cc1NC(=O)COC(=O)C1=COCCO1 | -4 | -1 | 14 | 1 | / | -9 | i | -8
CCc1ccc(C2=NN(C(=O)CCC(=O)O)C(c3cccs3)C2)cc1 (centres undefined) | -1 | 0 | -1 | 1 | -9 | -2 | i | -26
COC(=O)c1ccc(-c2nc(O)c(C)s2)cc1 | -3 | 2 | 12 | 4 | 2 | 1 | i | -14

Fetched by compound from the list above, 3 records:
SMILES | MT1-MMP act inh | MT1-MMP act inh RFP | HIV Env fusion | PABP polyA inh | UUG fidelity | eIF4H inh | Rce1 inhib | CSC inhib | others
CCc1ccc(C2=NN(C(=O)CCC(=O)O)C(c3cccs3)C2)cc1 (centres undefined) | -1 | 0 | -1 | 1 | -9 | -2 | i | -26
Cc1ccc2cc(CN(Cc3nnnn3Cc3ccco3)CC3CCCO3)c(=O)[nH]c2c1C (centres undefined) | -9 | 6 | / | 32 | / | 55 | i | 3 | eIF4H inh retest=3;PABP polyA inh retest=7
O=C(CSc1nc(-c2ccccc2)cc(C(F)(F)F)n1)NCc1cccs1 | -2 | -6 | / | -3 | / | 0 | i | -8

Next part.
SMILES | MT1-MMP act inh | MT1-MMP act inh RFP | HIV Env fusion | PABP polyA inh | UUG fidelity | eIF4H inh | Rce1 inhib | CSC inhib | others
O=C(c1ccncc1)N1CCN(S(=O)(=O)c2cccc(Cl)c2)CC1 | 2 | 2 | -4 | / | -18 | / | i | -21
Nc1nc(Nc2ccccc2)nc2c1ncn2[C@@H]1O[C@H](CO)[C@@H](O)[C@H]1O | 0 | 3 | -16 | / | -19 | / | i | -4
CC(C)(C)c1csc(Sc2ncccc2[N+](=O)[O-])n1 | 6 | -2 | 5 | 10 | -13 | 2 | i | -4
Cc1noc(NS(=O)(=O)c2ccc(NC(=O)c3oc4ccc(Cl)cc4c3C)cc2)c1C | 3 | -2 | -1 | 14 | -13 | -6 | i | 19
Cc1ccccc1Cn1c2ccccc2c2cn[nH]c(=O)c21 | 5 | -3 | / | 3 | / | -3 | i | -3
N#C/C(=C\c1cccn1S(=O)(=O)c1cccc(C#N)c1)S(=O)(=O)c1ccc(F)cc1 | 2 | 3 | -53 | / | -7 | / | / | /
COC(=O)c1ccc(C2CC(=O)NC3=C2C(=O)CCC3)cc1 (centres undefined) | -2 | 1 | / | 3 | -8 | 2 | i | -8
N#Cc1ccc(C(=O)Nc2nc(-c3cccs3)c(C(=O)C(F)(F)F)s2)cc1 | -14 | -36 | 27 | 4 | 7 | 7 | i | 70
CC1(C)CC(=O)C=C(NNC(=O)c2cccnc2)C1 | -1 | 3 | -15 | 12 | -3 | 34 | i | -9
Cc1ccc(S(=O)(=O)Nc2ccc3ccccc3c2)cc1 | 0 | -4 | -15 | / | 7 | / | / | /
O=C(NNc1nc2c(F)cccc2s1)c1cc(=O)c2ccccc2o1 | 0 | 6 | -13 | 2 | -2 | 1 | i | 9
CN1CCN(S(=O)(=O)c2ccc(NC(=O)c3ccc(F)cc3)cc2)CC1 | 6 | 2 | / | 0 | -7 | -3 | i | -13
COCCNc1nc(NCc2ccccc2)nc2ccsc12 | -4 | -10 | 42 | / | -23 | / | / | /
CCc1nc(NCCC(C)C)c(C#N)c2c1CCCC2 | -3 | 0 | / | 2 | 2 | -10 | i | 37
CNC(=O)C(=O)NCC(c1cccs1)S(=O)(=O)c1ccc(F)cc1 (centres undefined) | -3 | 1 | -5 | / | -16 | / | i | 3
CNS(=O)(=O)c1cc(OC)c(OC)cc1CC(=O)OC | 2 | 1 | -3 | 7 | / | 12 | i | -15

A stretch from the list above, for reference:
SMILES | MT1-MMP act inh | MT1-MMP act inh RFP | HIV Env fusion | PABP polyA inh | UUG fidelity | eIF4H inh | Rce1 inhib | CSC inhib | others
Nc1nc(Nc2ccccc2)nc2c1ncn2[C@@H]1O[C@H](CO)[C@@H](O)[C@H]1O | 0 | 3 | -16 | / | -19 | / | i | -4
CC(C)(C)c1csc(Sc2ncccc2[N+](=O)[O-])n1 | 6 | -2 | 5 | 10 | -13 | 2 | i | -4
Cc1noc(NS(=O)(=O)c2ccc(NC(=O)c3oc4ccc(Cl)cc4c3C)cc2)c1C | 3 | -2 | -1 | 14 | -13 | -6 | i | 19
Cc1ccccc1Cn1c2ccccc2c2cn[nH]c(=O)c21 | 5 | -3 | / | 3 | / | -3 | i | -3
N#C/C(=C\c1cccn1S(=O)(=O)c1cccc(C#N)c1)S(=O)(=O)c1ccc(F)cc1 | 2 | 3 | -53 | / | -7 | / | / | /
COC(=O)c1ccc(C2CC(=O)NC3=C2C(=O)CCC3)cc1 (centres undefined) | -2 | 1 | / | 3 | -8 | 2 | i | -8
N#Cc1ccc(C(=O)Nc2nc(-c3cccs3)c(C(=O)C(F)(F)F)s2)cc1 | -14 | -36 | 27 | 4 | 7 | 7 | i | 70

Sorted by count of non-hydrogen atoms (lowest first): 3 of the compounds above
SMILES | MT1-MMP act inh | MT1-MMP act inh RFP | HIV Env fusion | PABP polyA inh | UUG fidelity | eIF4H inh | Rce1 inhib | CSC inhib | others
Cc1ccc(S(=O)(=O)Nc2ccc3ccccc3c2)cc1 | 0 | -4 | -15 | / | 7 | / | / | /
Nc1nc(Nc2ccccc2)nc2c1ncn2[C@@H]1O[C@H](CO)[C@@H](O)[C@H]1O | 0 | 3 | -16 | / | -19 | / | i | -4
N#Cc1ccc(C(=O)Nc2nc(-c3cccs3)c(C(=O)C(F)(F)F)s2)cc1 | -14 | -36 | 27 | 4 | 7 | 7 | i | 70

Compound activity from PubChem.
